A1 inh = inhibitors of the anti-apoptotic protein A1, read as caspase activation; MEF A1-2A-BIM cells, Caspase-Glo 3/7 luminescence, 3 h; percent of clofoctol response, vehicle zero; caspase activation, % (test concentration not listed); 330,000 compounds, 0.066% hits; AID 2462;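 active = over half of replicate activation scores above 10%, or exactly half above 10 with the replicate mean above 10; inconclusive = replicate mean below 10 yet half the replicates above 10; inactive = over half of replicates below 10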;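 also: wells of about 30 µL received 50 nL stock; many hits fall short of the cut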
ALR H2O2 inh = blocks human ALR sulfhydryl oxidase activity. P55789. purified ALR, DTT oxidation, H2O2 HRP-luminol luminescence. inhibition, % (concentration not given with the values). 290,000 compounds, 3.8% hits;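 active = mean and each replicate at 75% or more; inconclusive = only one of the two met; inactive = neither met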;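 also: stock transfer was 7.5 nL into about 7.5 µL; 0% = neutral wells and 100% = wells with inactivated enzyme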
Target sequence (P55789 whole entry, looked up): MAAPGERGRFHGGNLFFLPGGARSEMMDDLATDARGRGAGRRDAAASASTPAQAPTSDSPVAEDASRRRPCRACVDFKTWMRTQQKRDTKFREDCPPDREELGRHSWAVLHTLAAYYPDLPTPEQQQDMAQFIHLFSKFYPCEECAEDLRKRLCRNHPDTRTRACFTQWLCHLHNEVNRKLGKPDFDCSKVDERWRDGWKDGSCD
Beta cell apopt = blocks beta cell apoptosis; INS-1E cytokine-induced death, ATP luminescence, 48 h; percent of positive-control rescue, neutral wells zero; 300,000 compounds, 0.8% hits; protection from apoptosis, % (test concentration not listed); AID 435005;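 active = all replicates at 75% or more, or half of them and the mean; inconclusive = half reach 75% but not the mean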;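 also: 0% = cytokine-treated negative control wells and 100% = positive control rescue; higher means more ATP so stronger rescue from cytokine killing; wells of about 40 µL received 100 nL stock; the first replicate is given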
Beta2AR agonist = agonists of human beta-2 adrenergic receptor inducing internalization; P07550; Am2.2-beta2AR cells, FAP receptor internalization, flow cytometry; reference of the scale not given here; response, % (no concentration beside the values); 340,000 compounds, 0.43% hits; AID 504454;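 active = response above a set limit, near 3 SD of response in nonfluorescent compounds, cut at about 42% in these data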;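 also: stock transfer was 100 nL into about 11 µL; a reference agonist was the positive control; negative values mostly stem from fluorescent compounds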
Target sequence (P07550 whole entry, looked up): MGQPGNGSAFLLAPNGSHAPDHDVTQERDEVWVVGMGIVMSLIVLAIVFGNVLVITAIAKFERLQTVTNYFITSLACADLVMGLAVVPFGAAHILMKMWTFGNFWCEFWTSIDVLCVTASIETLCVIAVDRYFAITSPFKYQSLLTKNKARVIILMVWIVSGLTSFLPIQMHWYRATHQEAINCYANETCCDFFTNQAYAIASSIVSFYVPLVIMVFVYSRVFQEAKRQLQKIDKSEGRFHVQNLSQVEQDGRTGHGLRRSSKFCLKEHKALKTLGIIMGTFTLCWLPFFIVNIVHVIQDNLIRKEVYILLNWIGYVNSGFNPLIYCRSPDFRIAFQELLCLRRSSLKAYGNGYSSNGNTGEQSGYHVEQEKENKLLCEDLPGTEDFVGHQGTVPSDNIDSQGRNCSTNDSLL
LANA-H2A inh = blocks KSHV LANA binding to histone H2A/H2B; 320,000 compounds, 0.6% hits; cell-free LANA-H2A/H2B peptide, fluorescence polarization; inhibition, % (no concentration beside the values); Q9QR71; in the data active = inhibition mostly above about 10%, no sharp cut-off; inactive = mostly below about 6.7%;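 also: stock transfer was 7.5 nL into about 10 µL; 0% = median of vehicle wells and 100% = median of positive control wells; one replicate is shown; the record names a cut of 25% in any replicate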
T cruzi repl = blocks replication of Trypanosoma cruzi. 300,000 compounds, 1.4% hits. inhibition, % (test concentration not listed). T. cruzi beta-gal in NIH3T3, luminescence, 90 h;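 active = mean inhibition across valid replicates above about 55%, limit read from the data; inconclusive = mean below that limit but half or more replicates reach it; inactive = mean below it, under half of replicates reach it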;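 also: signal also drops with host cell toxicity which is not excluded here; 0% = plate median of DMSO wells and 100% = zero luminescence signal; higher percent means less beta-gal luminescence so fewer parasites; stock transfer was 50 nL into about 50 µL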
rRNA inh HTS = inhibits bacterial ribosomal RNA function over humanized ribosomes; 350,000 compounds, 1.6% hits; GFP signal change (wild-type ribosome), % (no concentration beside the values); E. coli WT GFP vs humanized-ribosome RFP mutants, fluorescence, 24 h; hits give low values; DMSO median 0, no signal -100;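 active = significant combined selectivity score with lowered wild-type GFP, culture density cut under 30%, mutant RFP and density less affected; inactive = any of these conditions unmet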; also: one replicate is shown; some compounds called inactive have numbers as strong as hits
Calb FLC = C. albicans growth modulation with fluconazole | C. albicans CaCi-2 (fluconazole-resistant clinical isolate) + fluconazole, Alamar Blue growth, 48 h | growth inhibition, % (concentration not given with the values) | 300,000 compounds, 0.57% hits;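 active = most replicates above 75%; inconclusive = exactly half above 75%; inactive = most below 75%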;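 also: all wells also contain fluconazole at 8 µg/ml as a sub-toxic cotreatment; 0% = median of DMSO wells and 100% = median of geldanamycin control wells; wells of about 8 µL received 7.5 nL stock; the first replicate is given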
rRNA inh HTS OD600 = also measured in rRNA inh HTS; calls as there; OD600 change, %; measured here: OD600 growth;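 optical density of the mix in the first replicate; 0 = DMSO median and -100 = no signal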
rRNA inh HTS RFP = further read-out of rRNA inh HTS, marked with its call; RFP signal change, %; measured here: RFP humanized mutant strains;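 first replicate; 0 = DMSO median and -100 = no signal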
* = called active by the depositor; ? = inconclusive; / = no result given; & = joins results of further samples. Some of the compounds tested. The share of hits here may be higher or lower than overall.

SMILES	A1 inh	ALR H2O2 inh	Beta cell apopt	Beta2AR agonist	LANA-H2A inh	T cruzi repl	rRNA inh HTS	rRNA inh HTS OD600	rRNA inh HTS RFP	Calb FLC
COc1ccc(NS(=O)(=O)c2cccc(NC(=O)CCC(=O)c3ccc(Cl)cc3)c2)cc1	0.8	1.7	3.4	9.5	0.0	-15.5	/	/	/	-1.1
CN(CC(=O)Nc1cccc(F)c1)C(=O)CCNC(=O)c1ccco1	-0.1	-8.8	-1.0	-0.1	2.1	-4.0	0.0	9.3	-1.7	-3.0
COc1ccc(Oc2nc(C(F)(F)F)nc3ccccc23)cc1	0.4	/	3.9	8.0	3.9	6.7	/	/	/	3.4
Nc1cccc(NC(=O)CCC(=O)NCc2ccco2)c1	-0.6	-2.4	-4.8	-5.5	1.1	-11.9	6.2	8.5	-3.0	12.9
COc1c(C(=O)Nc2ccc(Br)cn2)ccc2ccccc12	-1.8	-27.5	-0.9	-4.4	1.7	1.0	1.3	5.9	-3.9	2.8
CC1CCC(NC(=O)CNC(=O)c2cccs2)CC1 (stereo not drawn)	-0.4	-0.6	-2.3	-16.5	-2.4	3.0	20.5	8.8	1.5	2.1
Cc1nc(-c2ccc(S(=O)(=O)N3CCN(c4ccccc4)CC3)cc2)co1	0.4	0.5	0.8	-2.3	4.6	-3.6	5.5	5.5	2.9	-7.7
CCSc1nnc(NC(=O)CCNS(=O)(=O)c2ccccc2F)s1	0.1	2.1	-1.4	-1.9	6.3	-6.8	-3.5	-12.2	-1.0	-7.5
CCc1cccc(C)c1NC(=O)CSc1nc2ccncc2[nH]1	0.0	-0.2	-3.3	-2.1	2.0	-12.1	2.0	9.2	-2.6	10.1
Cc1cc(-c2nc(C)c(-c3nnc(SCC(=O)Nc4ccc(Cl)cc4)n3C)s2)no1	0.3	/	-5.9	-6.2	7.7	13.8	18.1	10.0	4.1	5.3
COC(=O)/N=C(/Cc1ccc(OC)cc1)c1ccc(OC)cc1	0.0	/	-4.7	1.3	-6.4	-7.6	-9.7	-12.9	3.2	1.1
O=C(Cc1ccc(Cl)cc1)Nc1ccc(C(=O)N2CCCCC2)cc1	0.3	1.3	2.3	-3.8	-20.3	-18.5	2.9	-2.7	-0.2	?
O=Cc1ccc(-c2ccc(F)cc2)o1	-0.1	1.2	-1.3	-4.6	0.1	-5.1	-0.4	-2.4	0.5	5.2
COc1ccccc1OP(=O)(O)Oc1ccccc1OC	0.3	-3.0	-3.4	1.6	0.4	-2.5	7.5	4.9	-2.4	1.3
Cc1ccc(C)c(N(CC(=O)NN=C2CCN(C)CC2)S(=O)(=O)c2ccccc2)c1	-0.3	3.3	2.3	4.0	3.7	-5.3	/	/	/	2.5
CN(CC(=O)Nc1ccc(Cl)cc1)C(=O)CNC(=O)c1cccs1	0.6	-2.9	-3.5	-2.6	-1.0	/	5.5	2.7	1.3	/
CCN(CC)CCCNC(=O)Cn1ccc2ccccc2c1=O	0.1	4.0	-7.4	-3.1	3.5	-6.3	7.5	13.5	-9.5	1.5
O=C1C(Nc2ccccc2)=C2CCCC=C2N1c1ccccc1	0.1	102.1*	-2.1	14.4	2.3	5.6	15.9	7.5	3.7	2.3
CC1CC(C)CN(S(=O)(=O)c2cc3c4c(c2)C(C)C(=O)N4CCC3)C1 (stereo not drawn)	0.6	-5.1	-8.5	8.1	5.0	-4.1	-4.6	-4.1	1.9	4.7
COCCOC(=O)c1[nH]c2c(c1C)C(=O)CC(c1ccc(OC)c(OC)c1)C2 (stereo not drawn)	-0.2	0.5	-9.9	5.6	-2.9	0.3	-4.4	-2.0	1.3	16.7

A draw from above in order of heavy-atom count, low to high:
SMILES	A1 inh	ALR H2O2 inh	Beta cell apopt	Beta2AR agonist	LANA-H2A inh	T cruzi repl	rRNA inh HTS	rRNA inh HTS OD600	rRNA inh HTS RFP	Calb FLC
O=Cc1ccc(-c2ccc(F)cc2)o1	-0.1	1.2	-1.3	-4.6	0.1	-5.1	-0.4	-2.4	0.5	5.2
COc1ccccc1OP(=O)(O)Oc1ccccc1OC	0.3	-3.0	-3.4	1.6	0.4	-2.5	7.5	4.9	-2.4	1.3
COc1c(C(=O)Nc2ccc(Br)cn2)ccc2ccccc12	-1.8	-27.5	-0.9	-4.4	1.7	1.0	1.3	5.9	-3.9	2.8
COc1ccc(Oc2nc(C(F)(F)F)nc3ccccc23)cc1	0.4	/	3.9	8.0	3.9	6.7	/	/	/	3.4
CN(CC(=O)Nc1ccc(Cl)cc1)C(=O)CNC(=O)c1cccs1	0.6	-2.9	-3.5	-2.6	-1.0	/	5.5	2.7	1.3	/
COCCOC(=O)c1[nH]c2c(c1C)C(=O)CC(c1ccc(OC)c(OC)c1)C2 (stereo not drawn)	-0.2	0.5	-9.9	5.6	-2.9	0.3	-4.4	-2.0	1.3	16.7
Cc1ccc(C)c(N(CC(=O)NN=C2CCN(C)CC2)S(=O)(=O)c2ccccc2)c1	-0.3	3.3	2.3	4.0	3.7	-5.3	/	/	/	2.5

(continued)
SMILES	A1 inh	ALR H2O2 inh	Beta cell apopt	Beta2AR agonist	LANA-H2A inh	T cruzi repl	rRNA inh HTS	rRNA inh HTS OD600	rRNA inh HTS RFP	Calb FLC
O=C(O)CCCn1cc(NC(=O)COc2ccc(F)cc2)cn1	0.5	/	-1.2	2.5	-4.4	-3.5	2.3	10.4	-0.9	-1.0
Cc1ccc(NS(=O)(=O)c2ccc(C(=O)NC3CCN(Cc4ccccc4)CC3)cc2)cc1	0.6	-3.7	36.8	24.0	-0.9	/	/	/	/	/
O=C(c1ccccc1)c1ccccc1N/C=C/c1nnnn1-c1ccccc1	1.0	-0.2	-2.6	-11.4	-6.7	27.8	/	/	/	1.0
C1=CC2C3C=CC(C3)C2C1 (stereo not drawn)	-0.1	-7.4	-3.0	-6.4	-76.2	/	8.0	-0.2	0.0	/
CCOc1ccc(CC(=O)NNC(=S)Nc2ccc(OC)c(OC)c2)cc1	-0.2	/	-3.0	3.2	0.4	0.4	-6.7	4.7	1.3	10.2
N=c1sccn1CC(=O)Nc1ccc2c(c1)CCC2	0.3	/	-1.0	5.6	-0.8	-4.5	/	/	/	-11.4
COc1ccc(CNC(=O)COC(=O)Cc2ccc(Br)cc2)cc1	0.2	1.8	-2.0	12.3	3.0	/	-5.3	-0.2	4.3	/
CCCCOC(=O)c1cc(=O)[nH]c2ccc(C)cc12	-0.4	-5.2	-5.0	-5.5	-9.2	5.8	-0.9	-11.8	1.7	7.9
CCOC(=O)N1CCC(N2CC34C=CC(O3)C(C(=O)Nc3ccc(OCC)cc3)C4C2=O)CC1 (stereo not drawn)	-2.3	-14.3	-1.1	7.2	-4.2	-10.8	7.7	17.0	-0.3	4.4
COc1ccc(NC(=O)Nc2ccc3c(c2)C(=O)N([C@H](C)CO)C[C@H](C)[C@@H](CN(C)C(=O)Nc2ccc(OC)cc2)O3)cc1	0.8	-11.2	1.0	-6.5	7.3	/	-5.3&-0.3	-8.4&1.1	-0.5&-5.8	/
CCc1ccc(CNC(=O)C2CCN(S(=O)(=O)N3CCC4(CC3)OCCO4)CC2)cc1	-0.7	6.8	0.1	-10.9	-2.1	-7.1	-10.5	-16.0	-9.7	8.6
C/C(=N\OCC(=O)Nc1ccccc1C(=O)O)c1cccs1	-0.4	-2.0	-2.5	17.5	-5.7	-18.8	-6.6	-2.6	-4.7	4.6
CCNc1nc(NC(C)C)nc(N(C#N)CCOc2ccc(Cl)cc2Cl)n1	1.3	1.1	/	-10.1	-2.6	46.4	/	/	/	-3.8
COc1ccc(CN(CC(=O)NCc2ccccc2)C(=O)CCC(=O)Nc2ccccn2)cc1	0.5	-0.2	-7.4	-8.3	4.7	-0.3	2.9	9.7	-1.0	3.8
Cc1ccc(-n2ncc3c(=O)n(CC(N)=O)cnc32)cc1	0.1	-0.1	/	5.6	3.5	-23.1	21.3	10.0	2.0	-1.5
COc1cc(OC)c(OC)cc1CNCc1ccco1	-0.2	-30.4	-4.1	0.9	-9.3	-9.4	18.2	10.8	0.8	-0.6
CCOC(=O)c1sc2nc3n(c(=O)c2c1C)CCC(C)CC3 (stereo not drawn)	-0.5	1.3	-6.6	3.7	-9.6	42.3	-9.6	-5.3	-6.7	-6.2
COc1ccc(CCNC(=O)CC(=O)N/N=C/c2ccc(Br)cc2)cc1OC	-0.6	/	-1.1	4.3	-1.0	5.1	3.6	6.1	0.1	3.0
CCOC(=O)C(NC(C)=O)(N1CCOCC1)C(F)(F)F (stereo not drawn)	0.1	/	1.4	/	0.4	3.9	/	/	/	-4.0
COc1ccc(NCC(=O)Nc2ccc(C#N)cc2)cc1Cl	-0.2	-8.8	8.4	30.6	2.2	29.8	/	/	/	-6.3

Only A1 inh, for 4 of the compounds above:
SMILES	A1 inh
CN(CC(=O)Nc1cccc(F)c1)C(=O)CCNC(=O)c1ccco1	-0.1
COc1ccc(NC(=O)Nc2ccc3c(c2)C(=O)N([C@H](C)CO)C[C@H](C)[C@@H](CN(C)C(=O)Nc2ccc(OC)cc2)O3)cc1	0.8
CCOc1ccc(CC(=O)NNC(=S)Nc2ccc(OC)c(OC)c2)cc1	-0.2
COc1ccc(CCNC(=O)CC(=O)N/N=C/c2ccc(Br)cc2)cc1OC	-0.6

Further records follow:
SMILES	A1 inh	ALR H2O2 inh	Beta cell apopt	Beta2AR agonist	LANA-H2A inh	T cruzi repl	rRNA inh HTS	rRNA inh HTS OD600	rRNA inh HTS RFP	Calb FLC
COc1ccc(-n2nc(C(=O)NCC(=O)Nc3cc(OC)c(OC)c(OC)c3)c3ccccc3c2=O)cc1Cl	-0.4	-1.6	15.1	10.8	0.2	34.2	4.1	7.6	0.0	2.2
C/C(=N\NC(=O)Cn1cc([N+](=O)[O-])cn1)c1ccc(O)cc1	0.8	/	-0.3	7.2	1.6	?	7.3	-2.3	0.2	-5.6
O=C1CCC(C(=O)OCc2cc(=O)oc3ccc4ccccc4c23)=NN1	0.3	7.4	5.6	-7.6	5.2	7.9	5.5	-0.3	-1.5	11.6
Cc1csc(N2CCCC2c2nc3cc(C(F)(F)F)ccc3n2CCOCCO)n1 (stereo not drawn)	0.4	6.8	-3.1	-9.2	5.4	-18.0	7.1	9.7	-5.6	-3.3
CC(=O)n1cc(C2C(=O)CC(C)(C)CC2=O)c2ccccc21	0.3	22.0	-5.7	-3.5	0.5	-2.7	/	/	/	3.7
CCOc1ccc(OCCC(=O)N(CCC2=CCCCC2)c2c(N)n(Cc3ccccc3)c(=O)[nH]c2=O)cc1	0.6	-1.1	10.6	1.2	-0.7	11.2	4.9	9.0	-3.5	3.8
